Bioassay records from PubChem BioAssay.
Six1-Eya2 blk: inhibitors of human Six1/Eya2 interaction; Q15475+O00167; AlphaScreen GST-Six1/His-Eya2 binding, biochemical; active compounds read low; control for the full effect not named in the record; activity change, % (concentration not given with the values); 360,000 tested, 0.56% active; AID 651725; in the data active = activity change below about -65%; inconclusive = about -30% to -65%; inactive = above about -30%; further: on the % scale 0 is the no-effect control and ±100 the full control effect
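AlphaScreen with GST-Six1 and His-Eya2 (5X mix: 250 nM and 500 nM), glutathione donor and nickel acceptor beads; buffer 50 mM Tris pH 8.0, 300 mM NaCl, 1 mM TCEP; 1 h at 37 C in the dark.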
CtBP-E1A blk: blocks the CtBP interaction with E1A. AID 651724. 340,000 tested, 0.49% active. activity change, % (test concentration not listed). AlphaScreen GST-E1A/His-CtBP binding, 1536-well; active compounds read low; control for the full effect not named in the record; in the data active means activity change below about -65%; inconclusive means about -30% to -65%; inactive means above about -30%; further: on the % scale 0 is the no-effect control and ±100 the full control effect
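AlphaScreen with 125 nM GST-E1A and 125 nM His-CtBP (5X stocks) in Tris pH 8.0, 300 mM NaCl, BSA, Tween 20, TCEP. Compounds preincubated 2 h at 37 deg C, then glutathione donor/nickel acceptor beads added for 1 h at 37 deg C in dark.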
D2 PAM: positive allosteric modulators of human D2 dopamine receptor | DiscoveRx D2 beta-arrestin cells, luminescence, 90 min; 100% = 57 uM dopamine signal | 360,000 tested, 0.23% active | potentiation, % (test concentration not listed) | AID 624464 | P14416; active = potentiation of 50% or more; inconclusive = 30% to 50%; inactive = 30% or less;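 further: compound concentration not given in the record; tested on top of an EC20 dose of dopamine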
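PathHunter D2 cells, attached overnight at 37 deg C, received compound in DMSO plus dopamine at EC20 (50 nM final) for 90 min at 37 deg C. Beta-arrestin recruitment was read as luminescence after 1 h with detection reagent at ambient temperature.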
D2 ag: agonists of human D2 dopamine receptor (beta-arrestin) | DiscoveRx PathHunter D2 beta-arrestin, luminescence, 90 min; 100% = 57 uM dopamine signal | AID 624465 | 360,000 tested, 0.084% active | activation, % (test concentration not listed); in the data active = activation above about 40%; inconclusive = about 15% to 40%; inactive = below about 15%; further: compound concentration not given in the record; the text of the record calls up to 30% inactive
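DiscoveRx PathHunter D2 beta-arrestin cells (2,100/well) attached overnight, then compound-stimulated 90 min at 37 C in HBSS/10 mM HEPES/0.1% Tween-20 buffer; beta-galactosidase complementation read by luminescence after 1 h at ambient temperature. Dopamine 57 uM final (EC100) as control.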
TRPV1 potentiator: potentiators of human vanilloid receptor 1 (TRPV1) | 320,000 tested, 0.02% active | AID 540277 | TRPV1-expressing cells, Fluo-8 calcium influx, capsaicin EC20 potentiation; host cell line not named in the record; control for the full effect not named in the record | potentiation, % at 8.33 µM; active means potentiation above 80%; inconclusive means 30% to 80%; inactive means below 30%; further: 0% is about no effect
Target sequence (Q8NER1 whole entry, looked up): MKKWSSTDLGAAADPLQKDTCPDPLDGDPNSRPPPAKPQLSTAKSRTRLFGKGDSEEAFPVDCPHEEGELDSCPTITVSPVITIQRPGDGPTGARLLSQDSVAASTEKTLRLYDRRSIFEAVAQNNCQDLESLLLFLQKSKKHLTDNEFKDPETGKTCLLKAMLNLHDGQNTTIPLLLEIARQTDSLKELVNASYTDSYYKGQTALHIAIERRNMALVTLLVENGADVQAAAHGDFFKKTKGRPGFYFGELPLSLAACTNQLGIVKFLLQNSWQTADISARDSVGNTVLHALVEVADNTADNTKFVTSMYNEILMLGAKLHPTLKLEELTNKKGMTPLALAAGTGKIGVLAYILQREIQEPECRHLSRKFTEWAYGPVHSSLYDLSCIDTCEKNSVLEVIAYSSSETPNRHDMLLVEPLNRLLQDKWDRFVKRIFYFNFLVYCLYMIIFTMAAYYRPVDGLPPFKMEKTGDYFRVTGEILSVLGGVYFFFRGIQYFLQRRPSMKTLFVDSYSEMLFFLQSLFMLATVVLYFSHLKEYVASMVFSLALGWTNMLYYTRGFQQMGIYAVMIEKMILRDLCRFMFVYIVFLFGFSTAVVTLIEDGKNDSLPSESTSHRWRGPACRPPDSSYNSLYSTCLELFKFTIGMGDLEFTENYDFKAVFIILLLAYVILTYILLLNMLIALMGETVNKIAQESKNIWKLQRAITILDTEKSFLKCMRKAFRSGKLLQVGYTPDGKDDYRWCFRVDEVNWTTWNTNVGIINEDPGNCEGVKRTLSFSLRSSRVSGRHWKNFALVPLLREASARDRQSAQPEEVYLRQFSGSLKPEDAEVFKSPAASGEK
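Fluo-8 calcium influx in TRPV1-expressing cells, kinetic read (ex 480/em 520 nm). Compound added and read 3 min for agonist activity, followed by capsaicin at EC20 final and 2 min further read for enhancement.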
PINK1 modulator: changes PINK1 expression; PINK1 immunofluorescence, high-content cytometry, 24 h; Potency, µM (top dose mostly 76.6 µM), inactives show at the highest dose activation (PINK1 increase), usual class: activators; 410,000 tested, 0.2% active; active = well fitted activation curve with a large enough effect; inconclusive = small, poorly fitted or top-dose-only effect; inactive = flat fitted curve, though single readings scatter; cell line not stated here;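 further: potency means the concentration at half of the fitted maximal effect; % of control where 0% means no effect; nearly all actives have a fitted effect of over 65% in size; a mitochondrial uncoupler was the plate control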
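PINK1 protein, normally rapidly degraded, was detected by immunofluorescence after 24 hour compound treatment of a stable cell line. Titration data (5 concentrations) came from laser-scanning cytometry, with CCCP-treated wells as controls.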
Sfp PPTase inh: Sfp phosphopantetheinyl transferase inhibition. Q9F4F7. Biochemical Sfp PPTase activity, qHTS. AID 1490. 310,000 tested, 3.5% active. Potency, µM, for inactives: max response, negative = inhibition, usual class: inhibitors; active means well fitted inhibition curve with a large enough effect; inconclusive means small, poorly fitted or top-dose-only effect, or another doubt; inactive means no such curve, though single readings can be large or run the other way;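 further: the enzyme is Sfp with the accession as filed and its product quenches rhodamine fluorescence; potency means the concentration at half of the fitted maximal effect; 0% = enzyme reaction without inhibitor and -100% = no enzyme wells; top concentration of the series not given in the record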
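Compounds were incubated with enzyme (final 15 nM) for 15 min at room temperature before substrate addition started the reaction. Fluorescence at 525 nm excitation, 598 nm emission was recorded immediately and after 30 minutes.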
Starred values were filed as active, the others as inactive; ? = inconclusive; . = no result given; & = joins results of further samples; [ ] = remark or other dose.

No.	Structure	Six1-Eya2 blk	CtBP-E1A blk	D2 PAM	D2 ag
1	O=C(NC1CC2CCC(C1)N2Cc1ccccc1)c1cccc(F)c1 (stereo not drawn)	14	.	-7	3.8
2	CC1=C(C(=O)OC2CCCCC2)C(c2ccc(F)cc2)NC(=O)N1 (stereo not drawn)	9	2	5	1.0
3	Fc1ccc(C(c2nnnn2Cc2ccccc2)N2CCSCC2)cc1 (stereo not drawn)	1	6	0	1.0
4	CN(C(=O)COC(=O)CNC(=O)C1CCCCC1)c1ccccc1	7	3	-2	-1.9
5	CC(=O)N1N=C(c2ccc(C(C)(C)C)cc2)OC1(C)C	4	1	-6	-1.4
6	O=C(CSc1ccc2nnc(-c3cccnc3)n2n1)NCc1ccco1	-10	-1	-3	-1.1
7	COC(=O)c1cccc(N(CC(=O)NC2CCCC2)C(=O)CNC(=O)c2cccs2)c1	5	4	6	0.0
8	CCN=C1S/C(=C\c2cc(Br)c(O)c(OC)c2)C(=O)N1CC	0	7	0	-1.6
9	COCCNC(=S)N/N=C/c1ccc(OCc2ccc(C(=O)OC)cc2)c(OC)c1	17	4	9	4.2
10	Cc1csc(NC(=O)Cc2ccc(F)cc2)n1	15	2	-6	0.2

No.	TRPV1 potentiator	PINK1 modulator	Sfp PPTase inh
1	1	-1.4%	9%
2	-1	1.1%	-3%
3	-3	.	6%
4	0	-1.4%	.
5	2	-2.6%	2%
6	13	1.1%	50µM*
7	4	-0.6%	14%
8	-8	2.3%	-10%
9	-3	8.8%	8%
10	10	-1.5%	9%

The results go on:
No.	Structure	Six1-Eya2 blk	CtBP-E1A blk	D2 PAM	D2 ag
11	CC(C)Oc1ccc(CNC(=O)C2CCCN(S(=O)(=O)N3CCOCC3)C2)cc1 (stereo not drawn)	23	17	-15	-3.1
12	CN(Cc1ccccc1)C(=S)NC(=O)C1CCCCC1	5	.	-7	-6.8
13	O=C(N/N=C/c1ccc([N+](=O)[O-])o1)c1cc(-c2ccncc2)nc2ccccc12	-10	-8	14	5.0
14	CSc1ccc(/C=N/n2nnnc2N)cc1	-2	-1	-5	-0.7
15	Cc1cccc(OCC(=O)NCC(=O)N/N=C/c2cc(Br)cc(Br)c2O)c1	-7	?	-6	-7.6
16	CCOC(=O)[C@@H]1[C@H]2COc3cc(OC)ccc3[C@@H]2N2C(=O)N(c3cccc(C)c3)C(=O)[C@@]12C	0	0	-11	-1.9
17	COc1cc(OC)cc(-c2c(C#Cc3ccsc3)c3cc(-c4cnc(OC)nc4)ccc3n2C)c1	-1	0	-13	-4.1
18	CCc1nnc(NS(=O)(=O)c2ccc(NS(=O)(=O)c3ccccc3[N+](=O)[O-])cc2)s1	6	1	-8	-6.3
19	COc1ccc2oc(=O)c(-c3nc(C)cs3)cc2c1	-17	-14	1	0.3
20	CC(=O)c1ccc(Nc2cc(C)nc3nc(C)nn23)cc1	-24	-14	-1	-1.7

No.	TRPV1 potentiator	PINK1 modulator	Sfp PPTase inh
11	1	1.3%	9%
12	1	-0.3%	0%
13	25	-1.3%[38.3 µM]	1%
14	-20	-2.5%[38.3 µM]	7%
15	2	0.9%	2%
16	-5	-0.4%	8%
17	-4	1.0%	.
18	5	4.1%	-9%
19	-6	6.8%[38.3 µM]	2%
20	-20	1.4%	-2%

Further records
No.	Structure	Six1-Eya2 blk	CtBP-E1A blk	D2 PAM	D2 ag
21	CCN(CC(=O)NC1CCS(=O)(=O)C1)S(=O)(=O)c1ccc2ccccc2c1 (stereo not drawn)	14	3	-9	0.3
22	CCN(CC)S(=O)(=O)c1ccc(OC)c(NC(=O)c2cc(C)on2)c1	-19	3	7	-1.0
23	CCc1cccc(CC)c1NC(=S)N(CCN(C)C)C(C)c1cccnc1 (stereo not drawn)	13	-20	-6	-3.1
24	CCOC(=O)N1CCN(S(=O)(=O)c2cc3c(cc2C)NC(=O)CO3)CC1	0	0	-6	-1.4
25	COc1ccccc1C1CCCN1Cc1nc(-c2cc3c(cc2Cl)OCO3)oc1C (stereo not drawn)	-14	-5	-23	-4.7
26	Cc1cccc(N(CC(=O)NC(C)C)C(=O)CCC(=O)Nc2ccccn2)c1	5	7	-2	-5.0
27	Cc1cc(C(=O)NC2Cc3ccccc3C2)c(C)o1	0	.	-21	-6.2
28	COc1ccc(OC)c(Nc2nc(N)nc(CSc3nnc(N)s3)n2)c1	-3	-1	0	-3.1
29	CCOc1ccc(-c2nnc(SCc3nc4ccccc4[nH]3)n2N)cc1	-2	4	7	-4.1
30	CCOC(=O)c1ccc(N2C(=O)C3CC=C(C)CC3C2=O)cc1 (stereo not drawn)	1	1	-4	0.2

No.	TRPV1 potentiator	PINK1 modulator	Sfp PPTase inh
21	30	0.5%	-17%
22	-1	2.0%	28%
23	22	-2.4%	20%
24	-4	0.6%	14%
25	-11	3.4%	2%
26	4	0.4%	-20%
27	-13	3.3%	-5%
28	-8	-8.4%[38.3 µM]	10%
29	-9	-0.7%	1%
30	-25	0.6%	-6%

(listing goes on)
No.	Structure	Six1-Eya2 blk	CtBP-E1A blk	D2 PAM	D2 ag
31	CC1CCCCC12NC(=O)N(CC(=O)Nc1ccc3c(c1)OCO3)C2=O (stereo not drawn)	1	1	9	0.7
32	COC(=O)N/N=C/c1cc(N=Nc2ccccc2)ccc1O	-10	-10	-18	-5.1
33	Cc1ccc2nc(NNC(=O)c3ccc4c(c3)OCCO4)sc2c1	1	-17	9	8.0
34	COc1ccc(-c2ccnc(SCC(=O)Nc3ccccn3)n2)cc1	-9	-1	-4	-3.0
35	CC1(C)C(=O)Nc2ccccc2N1C(=O)COC(=O)C1CCCCC1	-1	3	-24	3.0
36	CC(=O)N1CCN(C(=O)c2cc3c(s2)CCC(C)C3)CC1 (stereo not drawn)	-2	8	-25	-4.3
37	CNC(=S)N/N=C/c1c(Cl)cccc1Cl	0	.	-7	-7.5
38	CC(C)=CCc1cc(-c2oc3cc(O)cc(O)c3c(=O)c2O)ccc1O	-13	-5	-38	-1.9
39	Fc1ccc(C2=NOC(c3nnc(-c4ccccc4)o3)C2)cc1 (stereo not drawn)	-27	-4	-6	-1.8
40	CC(=O)Nc1cccc(OCC(=O)Nc2ccccc2)c1	8	10	-3	2.6

No.	TRPV1 potentiator	PINK1 modulator	Sfp PPTase inh
31	.	-0.9%	.
32	-1	0.6%	7%
33	13	-0.5%	?
34	-1	-1.9%	4%
35	-8	1.3%	14%
36	-11	2.2%	.
37	16	-0.7%	-26%
38	.	-0.9%	.
39	-17	7.3%	7%
40	3	7.3%	-26%

6 entries from above, arranged by length of the SMILES, lowest first:
No.	Structure	Six1-Eya2 blk	CtBP-E1A blk	D2 PAM	D2 ag
37	CNC(=S)N/N=C/c1c(Cl)cccc1Cl	0	.	-7	-7.5
40	CC(=O)Nc1cccc(OCC(=O)Nc2ccccc2)c1	8	10	-3	2.6
32	COC(=O)N/N=C/c1cc(N=Nc2ccccc2)ccc1O	-10	-10	-18	-5.1
36	CC(=O)N1CCN(C(=O)c2cc3c(s2)CCC(C)C3)CC1 (stereo not drawn)	-2	8	-25	-4.3
35	CC1(C)C(=O)Nc2ccccc2N1C(=O)COC(=O)C1CCCCC1	-1	3	-24	3.0
31	CC1CCCCC12NC(=O)N(CC(=O)Nc1ccc3c(c1)OCO3)C2=O (stereo not drawn)	1	1	9	0.7

No.	TRPV1 potentiator	PINK1 modulator	Sfp PPTase inh
37	16	-0.7%	-26%
40	3	7.3%	-26%
32	-1	0.6%	7%
36	-11	2.2%	.
35	-8	1.3%	14%
31	.	-0.9%	.

Additional records.
No.	Structure	Six1-Eya2 blk	CtBP-E1A blk	D2 PAM	D2 ag
41	CCOc1ccc(Nc2cc3n(c(=O)n2)CCc2cc(OC)c(OC)cc2-3)cc1	-84*	-5	6	2.2
42	Cc1ccc(/C=c2\sc3nc(-c4cccnc4)nn3c2=O)cc1	-16	-20	-14	-6.0
43	Cc1cc(C)c2c(CCl)cc(=O)oc2c1	6	-3	1	3.3
44	CCCc1cc(=O)[nH]c(SCc2ccc(Cl)cc2)n1	16	3	-14	-1.8
45	CCOC(=O)C1(C)CCN1C(=O)c1ccc(Cl)nc1 (stereo not drawn)	6	4	-5	-2.2
46	CCCn1c2ccc(C)cc2c2nnc(SCCN3CCCCC3)nc21	-10	-7	-22	-3.6
47	CN(C)c1ccc(/C=N/n2c(-c3cccnc3)n[nH]c2=S)cc1	3	2	-7	-0.5
48	NC(=O)c1nsc(C(=O)N(CCCN2CCOCC2)C(C(=O)NC2CCCCC2)c2ccc(Cl)cc2)c1N (stereo not drawn)	-4	10	-12	-0.4
49	O=C(CCN1C(=O)c2ccccc2S1(=O)=O)Nc1ccc2c(c1)OCCO2	-7	-8	1	-0.1
50	COc1cccc(C(C)(O)c2nc(-c3ccc(C)c(C)c3)cs2)c1 (stereo not drawn)	2	1	-3	-1.4
51	O=C(CCC(=O)N1CCN(c2cccc(Cl)c2)CC1)N1CCN(c2ccccc2)CC1	4	0	-8	-5.9
52	C/C(=N\NC(=S)NC1CCCCC1)c1cccc(Br)c1	-6	-7	-1	-1.0

No.	TRPV1 potentiator	PINK1 modulator	Sfp PPTase inh
41	2	1.1%	12%
42	1	6.0%	10%
43	3	0.2%	25%
44	11	-1.1%	19%
45	.	1.5%	.
46	27	1.3%&-0.1%	?
47	-2	-0.3%	-8%
48	-12	8.5%	15%
49	1	.	8%
50	.	5.7%	.
51	3	0.1%	12%
52	3	8.3%	41%[activator]

In the list so far, 3 have a thiophene ring, fused or not:
No.	Structure	Six1-Eya2 blk	CtBP-E1A blk	D2 PAM	D2 ag
7	COC(=O)c1cccc(N(CC(=O)NC2CCCC2)C(=O)CNC(=O)c2cccs2)c1	5	4	6	0.0
17	COc1cc(OC)cc(-c2c(C#Cc3ccsc3)c3cc(-c4cnc(OC)nc4)ccc3n2C)c1	-1	0	-13	-4.1
36	CC(=O)N1CCN(C(=O)c2cc3c(s2)CCC(C)C3)CC1 (stereo not drawn)	-2	8	-25	-4.3

No.	TRPV1 potentiator	PINK1 modulator	Sfp PPTase inh
7	4	-0.6%	14%
17	-4	1.0%	.
36	-11	2.2%	.

Some values from above:
`CCOc1ccc(Nc2cc3n(c(=O)n2)CCc2cc(OC)c(OC)cc2-3)cc1` – CtBP-E1A blk: -5
`CCCn1c2ccc(C)cc2c2nnc(SCCN3CCCCC3)nc21` – Six1-Eya2 blk: -10
